# NPR1 antag = antagonists of human natriuretic peptide receptor Npr1; HEK293 hNpr1 GloSensor cGMP, ANP-stimulated luminescence; Potency, µM (top dose mostly 46.3 µM), inactives show at the top dose activity change, negative = inhibition, most hits filed as inhibitors; 76,000 compounds, 1.6% hits; AID 1347048; active = well fitted inhibition curve with a large enough effect; inconclusive = small, poorly fitted or top-dose-only effect; inactive = no such curve, though single readings can be large or run the other way;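 further: nearly all actives have a fitted effect of over 60% in size; nearly all hits also lower the signal before the agonist is added; a reference antagonist and vehicle were the controls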
# Target sequence (P16066 whole entry, looked up): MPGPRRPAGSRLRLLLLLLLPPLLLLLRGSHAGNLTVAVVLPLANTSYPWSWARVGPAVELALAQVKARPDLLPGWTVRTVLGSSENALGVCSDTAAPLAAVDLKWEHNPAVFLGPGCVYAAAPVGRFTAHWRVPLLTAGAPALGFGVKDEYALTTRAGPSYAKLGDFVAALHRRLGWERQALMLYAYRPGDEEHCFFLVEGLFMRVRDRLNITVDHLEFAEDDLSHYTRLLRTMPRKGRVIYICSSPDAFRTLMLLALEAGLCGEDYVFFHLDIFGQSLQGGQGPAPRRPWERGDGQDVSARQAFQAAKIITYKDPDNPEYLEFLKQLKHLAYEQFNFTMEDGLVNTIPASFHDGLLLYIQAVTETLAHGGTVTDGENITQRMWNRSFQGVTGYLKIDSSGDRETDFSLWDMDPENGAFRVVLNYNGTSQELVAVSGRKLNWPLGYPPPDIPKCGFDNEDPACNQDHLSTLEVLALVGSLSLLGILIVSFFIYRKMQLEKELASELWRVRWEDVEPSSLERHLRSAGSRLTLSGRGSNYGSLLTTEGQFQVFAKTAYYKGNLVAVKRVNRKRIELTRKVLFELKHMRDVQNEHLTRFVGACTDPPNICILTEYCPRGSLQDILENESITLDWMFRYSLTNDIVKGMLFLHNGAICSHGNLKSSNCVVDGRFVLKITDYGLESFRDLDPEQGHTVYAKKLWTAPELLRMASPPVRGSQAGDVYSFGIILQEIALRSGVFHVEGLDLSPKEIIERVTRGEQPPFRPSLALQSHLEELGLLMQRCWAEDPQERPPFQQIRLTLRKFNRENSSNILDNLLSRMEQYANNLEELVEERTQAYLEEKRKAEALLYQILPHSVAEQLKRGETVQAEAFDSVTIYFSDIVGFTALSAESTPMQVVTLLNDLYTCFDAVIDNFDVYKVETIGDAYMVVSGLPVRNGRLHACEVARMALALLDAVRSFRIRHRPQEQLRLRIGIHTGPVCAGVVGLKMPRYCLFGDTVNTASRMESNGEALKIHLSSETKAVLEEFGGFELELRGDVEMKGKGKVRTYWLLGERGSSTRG
#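 Compound pre-incubated 30 min at room temperature on GloSensor-loaded HEK293 cells stably carrying hNpr1 and the pGS-40F cGMP biosensor. Stimulation uses hNppA at 0.1 nM final; luminescence is taken at baseline and 20 min post-agonist.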
# Starred values were filed as active, the others as inactive; ? = inconclusive; [ ] = another dose, or the depositor's remark. On the % scale 0 is the no-effect control and ±100 the full control effect; potency means the concentration at half of the fitted maximal effect.
Molecule | NPR1 antag
O=C(c1ccccc1Cl)N1CCn2c(nn(-c3ccc(C(F)(F)F)cc3)c2=O)C1 | ?
COc1ccc2cc1Nc1ccc(cc1)C[C@H](NCc1cccc(C(=O)O)c1)C(=O)N(C)[C@H](C(=O)Nc1ccccc1OCc1ccccc1)C2 | -26%
O=C(Nc1ccc(F)cc1)N1CC2CC(C1)[C@H]1CCCC(=O)N1C2 (stereo partly specified) | -2%
CO[C@@H]1CCOC[C@H]1NS(=O)(=O)c1cc(F)ccc1C | 2%
Cc1cnc(-c2cccnc2)n1C1CCCN(C(=O)C2CC2)C1 (stereo unspecified) | 0%
O=C(C1CCOC1)N1CCC(N(Cc2ccccc2)C2CCOCC2)CC1 (stereo unspecified) | 8%
CC(C)CCN1CCOc2cc([S+](=O)([O-])Nc3cccnc3)ccc2C1 | -19%[70.6 µM]
Cn1cc(CN2CCCC(COc3ccccc3C(=O)N3CCCCC3)C2)c2ccccc21 (stereo unspecified) | -18%
Cc1ccsc1C(=O)N1CC(c2nnc(-c3ccncc3)o2)C2(CCOCC2)C1 (stereo unspecified) | 0%
CCOCCCNC(=O)N1CCOc2ccc(CN3CCc4ccccc4C3)cc2C1 | 3%
COCCn1cnnc1CN(C)c1cc(C2CC(O)C2)ncn1 (stereo unspecified) | 4%
CC(=O)N1CCN(C[C@@H]2C=C(C)[C@H](Cc3nnc(-c4ccncc4)o3)C[C@H]2C(C)C)CC1 | -5%[70.6 µM]
COc1ccc(C)cc1NC(=O)C1CCCN(c2cn[nH]c(=O)c2)C1 (stereo unspecified) | -8%
COc1ccc(OC)c(CN2CCOc3ccc(C(=O)NCc4ccc(C)cc4)cc3C2)c1 | -15%
Cc1ccccc1CN1CCOc2cc([S+](N)(=O)[O-])ccc2C1 | -25%[70.6 µM]
CS(=O)(=O)N1CCC(OC2CCN(C(=O)Nc3cccc(Cl)c3F)CC2)CC1 | -19%
CC(C)(C)C(=O)N1CCCC(c2nn(-c3cccc(Cl)c3)c(=O)[nH]2)C1 (stereo unspecified) | -1%
COc1ccc(C(=O)NCc2nnc3c(-c4nc(C(C)C)no4)cccn23)cc1 | -1%
CC(C)=CCn1c(-c2cc(C)oc2C)cn2cc(C(=O)N(C)CC(C)C)nc2c1=O | 7%
Cc1cc(C(=O)NCC2(COc3cnccn3)C[C@@H](O)[C@@H](O)C2)no1 (stereo partly specified) | -10%[70.6 µM]
CCC(C(=O)N1CCN(Cc2ccc(C)c(C)c2)C(=O)C1)n1cccn1 (stereo unspecified) | 0%
O=C1Nc2ccc(-c3ccccc3F)cc2C(=O)N2CC[C@H](NS(=O)(=O)c3cccs3)[C@@H]12 | 0%
CC(C)c1noc(-c2cn(C3CCN(C(=O)c4ccoc4)CC3)nn2)n1 | -9%
COCc1cn(C[C@H]2C[C@@H](NC(=O)c3ccc4c(c3)OCO4)[C@H](O)[C@@H]2O)nn1 | -3%[70.6 µM]

# Entries shown so far containing a Cl atom, in the order listed:
Molecule | NPR1 antag
O=C(c1ccccc1Cl)N1CCn2c(nn(-c3ccc(C(F)(F)F)cc3)c2=O)C1 | ?
CS(=O)(=O)N1CCC(OC2CCN(C(=O)Nc3cccc(Cl)c3F)CC2)CC1 | -19%
CC(C)(C)C(=O)N1CCCC(c2nn(-c3cccc(Cl)c3)c(=O)[nH]2)C1 (stereo unspecified) | -1%

# Later entries.
Molecule | NPR1 antag
COCCn1cc(C(=O)NC2CCCc3c2[nH]c2ccccc32)c2ccccc2c1=O (stereo unspecified) | -6%
O=C(Nc1cccc(-c2nnc3n2CCCC3)c1)c1cccc(F)c1 | 2%
CCC1Oc2ccc(NC(=O)c3ccc(Cl)cc3)cc2CN(Cc2ccc3c(c2)OCO3)C1=O (stereo unspecified) | -11%
O=C(CCC[C@@H]1[C@H]2CCCN3CCC[C@@H](CN1C(=O)c1cccnc1)[C@@H]23)NCc1ccccn1 | -5%
O=C1NCCCCCN(C(=O)c2cccs2)[C@@H]2C[C@@H](C(=O)N3CCc4ccccc4C3)C[C@H]12 | -3%
CS(=O)(=O)N(C[C@H]1O[C@H](Cc2cc(-c3ccccc3)on2)CC[C@@H]1O)S(C)(=O)=O | -1%
Cc1nnsc1C(=O)N[C@H]1CCN(C(=O)COCC(=O)O)[C@H](C(=O)N[C@H](CC(C)C)C(N)=O)C1 | 0%
CCOc1cc(-c2noc(-c3ncn4c3COC(c3ccc(F)cc3)C4)n2)ccc1OC (stereo unspecified) | -2%
CCn1cnnc1CC1CCN(C(=O)C2CCN(Cc3nc(-c4cccc(C)c4)oc3C)CC2)CC1 | 2%
O=C(CN1CCOC1=O)N1CCCC(CCc2ccc(F)cc2F)C1 (stereo unspecified) | 5%
COc1ccc2[nH]c3c(c2c1)CCNC31CCN(C(=O)C2CCOCC2)CC1 | 5%
CN1CCC2(CC1)CC(=O)N(CC(=O)N(C)CCc1cnn(C)c1)C2 | 1%

# Filtered by structure, those above with an aryl methoxy group (six)
Molecule | NPR1 antag
COc1ccc2cc1Nc1ccc(cc1)C[C@H](NCc1cccc(C(=O)O)c1)C(=O)N(C)[C@H](C(=O)Nc1ccccc1OCc1ccccc1)C2 | -26%
COc1ccc(C)cc1NC(=O)C1CCCN(c2cn[nH]c(=O)c2)C1 (stereo unspecified) | -8%
COc1ccc(OC)c(CN2CCOc3ccc(C(=O)NCc4ccc(C)cc4)cc3C2)c1 | -15%
COc1ccc(C(=O)NCc2nnc3c(-c4nc(C(C)C)no4)cccn23)cc1 | -1%
CCOc1cc(-c2noc(-c3ncn4c3COC(c3ccc(F)cc3)C4)n2)ccc1OC (stereo unspecified) | -2%
COc1ccc2[nH]c3c(c2c1)CCNC31CCN(C(=O)C2CCOCC2)CC1 | 5%

# Continuation.
Molecule | NPR1 antag
COCCn1ncc(N2CCCC(CC(=O)Nc3cc(OC)ccc3OC)C2)cc1=O (stereo unspecified) | -9%
COc1cc(C(=O)N2CCCn3nc(CO)cc3C2)c2ccccc2n1 | 7%
COCc1nc(C2CCCN(C(=O)COc3cccc(C)c3)C2)no1 (stereo unspecified) | -3%
CC(C)C1=NOC2(CCN(C(=O)c3ccc4c(c3)OCO4)CC2)C1 | 0%[70.6 µM]
Cn1nccc1C(=O)N1CC(c2ncc3c(-c4ccc(F)cc4)nccn23)C1 | ?
CN(CC1(C)CCOCC1)C(=O)c1ccc2ncccc2c1 | -4%
CCS(=O)(=O)N[C@@H]1CN(C2CCOCC2)C[C@H]1CN(C)C | 13%
O=C(c1ccccc1Cl)N1CCC2(CC1)NC(=O)N(c1cccc(Cl)c1)N2 | 1%
O=C(NCc1nnc2ccc(-c3ccccc3)nn12)c1ccc(F)cc1 | 12%
CCCNC(=O)N(C1CCOCC1)C1CCN(C(=O)Nc2c(F)cccc2F)CC1 | 2%
O=C(NCC1CCCCC1)c1cccnc1N1CC2CC(C1)[C@H]1CCCC(=O)N1C2 (stereo partly specified) | 2%
COC(=O)[C@H](NC(=O)[C@@H]1C[C@H](NC(=O)Nc2ccc(F)cc2F)CN1C(=O)CSC)C(C)C | 0%

# Other structures:
molecule,NPR1 antag
CCn1cc(-c2ccc(OC)cc2)cc1C(=O)N1CCC(C)CC1,2%
CC1=C[C@@H](CN(C)C)[C@H](C(C)C)C[C@H]1Cc1nc2c(C)cccc2[nH]1,4%[70.6 µM]
COc1cc(CNC(=O)[C@@H]2C[C@@H](c3ccc(F)cc3)N(Cc3ccccc3)C2)cc(OC)c1,-5%
NC(=O)[C@@H](Cc1c[nH]c2ccccc12)NC(=O)[C@H]1CN(C(=O)c2cccc(F)c2)CCN1C(=O)C1CCNCC1,0%
COC(=O)CNC(=O)N1CCC2(CC1)CC(N(Cc1ccc(F)cc1)C1CC1)CCO2 (stereo unspecified),3%
O=C(CN1CCN(S(=O)(=O)N2CCCC2)CC1)NCc1ccccc1F,-4%
CC(C)(C)CC(=O)N1CCN2C(=O)c3ccc(Cl)cc3NC(=O)[C@H]2C1,6%[70.6 µM]
Cc1cc(S(=O)(=O)N2CCC(N(C(=O)C3CC3)C3CCOCC3)CC2)ccc1Cl,-7%
N#Cc1cccc(CN[C@@H]2CO[C@H](CNS(=O)(=O)c3ccccc3)[C@H]2O)c1,3%[70.6 µM]
Cn1cc(-c2ccc(F)cc2)cc1C(=O)NCCCN1CCCCC1,-4%
CCN1CCN(C(=O)c2c(OCC3CC3)cc(=O)n3c2CCCCC3)CC1,3%
COc1ccc(NC(=O)N2CCC(Oc3ncccc3C(=O)N3CCCCC3)C2)c(C)c1 (stereo unspecified),-1%
CN(C)C(=O)c1cccc2c1CCN2C(=O)Nc1ccc(F)cc1,-1%
O=C1Nc2ccc(-c3ccc4c(c3)OCO4)cc2C(=O)N2C[C@@H](NS(=O)(=O)c3ccc(F)cc3)C[C@@H]12,4%
Cc1cccc(NC(=O)N2CCCC(Cc3noc(-c4cnccn4)n3)C2)c1 (stereo unspecified),1%
O=C(NCCc1cccs1)C1CN(S(=O)(=O)c2cccnc2)CC12CCCCC2 (stereo unspecified),-9%
O=C1NC2(CCCN([S+](=O)([O-])c3ccccc3)C2)COc2ccccc21 (stereo unspecified),9%
O=C1CC2(CCN(Cc3cccc4ccccc34)CC2)Oc2cc(Cl)ccc21,14%
COc1ccc(CN2CCCC(c3nn(-c4ccccc4)c(=O)[nH]3)C2)cc1 (stereo unspecified),0%
CNC(=O)[C@@H]1C[C@H](Oc2ccccc2)CN1C(=O)Cc1cccc(F)c1,6%
O=C(Cc1ccc(F)cc1)N1CCN(c2cc(C(F)(F)F)ncn2)CC1,-10%
CCc1nc(CN2CCC(=O)N(Cc3ccc(F)cc3)C(C(C)C)C2)no1 (stereo unspecified),4%
CCC[C@H]1CN(CCS(C)(=O)=O)C[C@@H]1NC(=O)c1n[nH]nc1C,3%
COCCN1C(=O)N(C)C(=O)C12CCN(CCc1ccccc1)C2 (stereo unspecified),-2%
Cc1cnc(C2CCOCC2)n1C1CCCN(C(=O)c2cccs2)C1 (stereo unspecified),-1%
CC1=NS(=O)(=O)N(Cc2ccccc2)C=C1C(=O)OCc1noc(-c2cccc(Cl)c2)n1,-28%
COc1ccc(CN2C[C@H]3CN(Cc4ncc[nH]4)CCN3C2=O)cc1,8%[70.6 µM]
COc1cccc(-c2nc(CN3CCCC3=O)no2)c1,5%
CN(C)C[C@@H]1CN(c2ncccn2)C[C@H]1NC(=O)NCCc1ccccc1,0%
COCCNS(=O)(=O)c1cc(C(=O)O)cc(-c2c(C)cccc2C)c1,1%

# Already shown: entries from further up.
molecule,NPR1 antag
CN(C)C[C@@H]1CN(c2ncccn2)C[C@H]1NC(=O)NCCc1ccccc1,0%
COCCNS(=O)(=O)c1cc(C(=O)O)cc(-c2c(C)cccc2C)c1,1%

# (further entries)
molecule,NPR1 antag
Cc1ccccc1C(=O)N1CCC2(CC1)OCC(C(=O)NC(C)C)N2C(=O)c1cccc(F)c1 (stereo unspecified),0%
CCn1c(C2CCCN(C(=O)Nc3cccc(C)c3)C2)nn(C)c1=O (stereo unspecified),-1%
O=C(NC[C@H]1Cn2c(-c3cccc(Cl)c3)cnc2CO1)Nc1ccccc1,?
Cc1cccnc1CN1C[C@@H](F)[C@@H](OCc2nc3ccccc3n2C)C1,-1%[70.6 µM]
COc1c(C)cnc(CN(C)C(=O)C2CC(=O)N(C3CCCC3)C2)c1C (stereo unspecified),3%
CCOC(=O)C1=CN(CC(=O)Nc2ccc(Br)cc2F)S(=O)(=O)N=C1C,3%
CCNC(=O)N1CC[C@@H](CC(=O)O)[C@@H](CC2=NCCc3cc(OC)ccc32)C1,3%[70.6 µM]
CCOc1ccccc1CN1CCC(Cc2ccc(C(=O)N3CCOCC3)cc2)CC1,4%
O=C([C@@H]1C[C@H](Oc2ccccc2)CN1C(=O)c1ccncc1)N1CCOCC1,2%
O=C(NCCCO)c1ccc(-c2ncc3cnc(-c4cccc(F)c4)cn23)cc1,4%[70.6 µM]
O=C(NC1CC1)[C@@H]1C[C@H](Oc2cccnc2)CN1,4%
N#Cc1cccc(C(=O)N2CCCOCCNC(=O)[C@@H]3CCCC[C@@H]32)c1,-5%
COc1ccc(C(=O)N2CCCCC(NC(=O)NCc3ccco3)C2)cc1 (stereo unspecified),0%
O=C(CCc1ccccc1)NCCC1CCN(C(=O)Nc2cc(F)cc(F)c2)CC1,3%
O=C1Nc2ccc(-c3ccco3)cc2C(=O)N2CCN(C(=O)c3ccccc3)C[C@H]12,-5%[70.6 µM]
COc1ccc(CC(=O)N(C)Cc2ccc(F)cc2)cc1,-2%[70.6 µM]
COc1cccc(OCc2nc([C@@H]3C[C@H]3c3ccccc3)n(CCO)n2)c1,4%
COCc1c(C(=O)N[C@@H]2CN(Cc3ccccc3)C[C@H]2CN(C)C)noc1C,6%
CCN1CCCN(S(=O)(=O)CC)CC12CCOCC2,3%
O=C(CCc1ccnc(N2CCOCC2)c1)N1CCN(C(=O)c2ccco2)CC1,-4%
COc1cccc(-c2cc(C3CCN(C(=O)Nc4ccccc4F)CC3)[nH]n2)c1,-13%
Cn1nc(C2CCN(C(=O)CCCc3ccccc3)CC2)c2c1CCOC2,3%
COc1cc(NC(=O)Cn2c(-c3ccc(F)cc3)nc(C)cc2=O)cc(OC)c1,-28%
COc1ccc(N2Cc3c(ncnc3N3CCN(C(C)=O)CC3)N(C)CC2=O)cc1,6%
CNC(=O)[C@@H]1CN(C(=O)NCc2ccco2)C[C@H]1c1nc(C)no1,-2%
CCOC(=O)c1[nH]ncc1CN1CCN2C(=O)CNC(=O)C2C1 (stereo unspecified),0%
CC(=O)Nc1ccc(CNC2(Cc3cc(CN4CCCCC4)on3)COC2)cc1,0%[70.6 µM]
NCC1CCCN(Cc2ccc(-c3nc(-c4cccnc4)cc(=O)[nH]3)cc2)C1 (stereo unspecified),1%
O=C(Cc1ccc(OC(F)(F)F)cc1)N1CC(CNc2cccnc2)C2(C1)CN(c1ccccc1)C2 (stereo unspecified),6%
CC(C)CCN1CCCC2(C1)NC(=O)c1ccccc1O2 (stereo unspecified),19%[70.6 µM]
CS(=O)(=O)N(C1CC1)C1CCOC2(CCN(C(=O)c3cc(F)ccc3F)CC2)C1 (stereo unspecified),0%

# High-throughput results (PubChem)

# An excerpt; rates above refer to the full screens.
